# Screening results (PubChem)
# Beta2AR agonist: human beta-2 adrenergic receptor agonism by FAP; response, % (no concentration beside the values); AID 504454; P07550; Am2.2-beta2AR cells, FAP receptor internalization, flow cytometry; reference of the scale not given here; actives 0.43% (n = 340,000);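 active = response above a set limit, near 3 SD of response in nonfluorescent compounds, cut at about 42% in these data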;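 note: stock transfer was 100 nL into about 11 µL; a reference agonist was the positive control; negative values mostly stem from fluorescent compounds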
# Target sequence (P07550 whole entry, looked up): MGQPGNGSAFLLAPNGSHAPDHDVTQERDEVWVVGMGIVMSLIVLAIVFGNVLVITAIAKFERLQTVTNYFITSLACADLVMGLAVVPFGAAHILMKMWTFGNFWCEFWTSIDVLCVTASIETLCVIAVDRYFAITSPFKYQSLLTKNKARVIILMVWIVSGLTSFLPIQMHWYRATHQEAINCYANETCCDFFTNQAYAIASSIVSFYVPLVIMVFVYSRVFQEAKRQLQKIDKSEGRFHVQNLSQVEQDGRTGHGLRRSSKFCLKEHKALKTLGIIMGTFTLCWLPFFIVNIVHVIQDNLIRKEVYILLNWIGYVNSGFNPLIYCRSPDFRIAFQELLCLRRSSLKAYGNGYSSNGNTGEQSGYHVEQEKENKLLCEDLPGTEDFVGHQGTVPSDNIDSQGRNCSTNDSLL
# FGF22 binding: shifts melting point of recombinant human FGF22 | actives 1.5% (n = 340,000) | recombinant FGF22 thermal shift, SYPRO orange fluorescence; percent of sucrose octasulfate shift, DMSO zero | calls only at 9.99 µM | Q9HCT0;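 active = melting point raised past a set limit in the mean and every replicate; inconclusive = no clear call; three in four hits are not shown here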
# Target sequence (Q9HCT0 whole entry, looked up): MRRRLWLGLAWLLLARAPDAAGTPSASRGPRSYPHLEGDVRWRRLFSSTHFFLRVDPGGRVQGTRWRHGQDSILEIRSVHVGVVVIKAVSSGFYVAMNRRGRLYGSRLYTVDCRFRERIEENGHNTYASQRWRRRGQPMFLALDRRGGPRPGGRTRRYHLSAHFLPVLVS
# E coli growth: E. coli growth inhibition; Escherichia coli growth, OD600, 23 h; active compounds read low; OD600 absorbance (concentration not given with the values); actives 0.21% (n = 330,000); AID 1053175;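 active = OD600 absorbance below the run mean of sample wells minus 3.6 SD, in any replicate, cut at about 0.56 in these data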;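 note: stock transfer was 300 nL into about 60 µL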
# LANA-H2B inh: blocks KSHV LANA binding to histone H2A/H2B. AID 2629. inhibition, % (no concentration beside the values). actives 0.6% (n = 320,000). cell-free LANA-H2A/H2B peptide, fluorescence polarization; in the data active = inhibition mostly above about 10%, no sharp cut-off; inactive = mostly below about 6.7%;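 note: stock transfer was 7.5 nL into about 10 µL; 0% = median of vehicle wells and 100% = median of positive control wells; one replicate is shown; the record names a cut of 25% in any replicate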
# UCH37 inh: inhibitors of human deubiquitinating enzyme UCH37. Q9Y5K5. purified proteasome/UCH37, Ub-AMC cleavage fluorescence. inhibition, % (no concentration beside the values). actives 0.33% (n = 330,000). AID 588478;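 active = mean of two replicates above 20%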;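 note: 0% = compound-free wells with enzyme and 100% = wells lacking proteasome; stock transfer was 100 nL into about 20 µL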
# Target sequence (Q9Y5K5 whole entry, looked up): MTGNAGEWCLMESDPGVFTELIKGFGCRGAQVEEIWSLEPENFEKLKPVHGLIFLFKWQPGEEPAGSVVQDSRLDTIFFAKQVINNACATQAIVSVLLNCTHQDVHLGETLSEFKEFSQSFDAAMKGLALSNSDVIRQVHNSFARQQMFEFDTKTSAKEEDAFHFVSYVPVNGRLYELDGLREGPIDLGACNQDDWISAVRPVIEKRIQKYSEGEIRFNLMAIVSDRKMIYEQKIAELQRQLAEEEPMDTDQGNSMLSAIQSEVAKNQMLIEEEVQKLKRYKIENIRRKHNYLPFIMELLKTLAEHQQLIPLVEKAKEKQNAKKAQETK
#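 System: Proteasome-associated human UCH37 deubiquitinase; Input: 0.15 nM proteasome in added enzyme buffer; Also added: Ub-AMC substrate from 1 µM stock; Incubation: 30 min compound-proteasome preincubation then 25 min substrate reaction, room temperature; Detection: fluorescence, ex 355 nm, em 460 nm; Read-out: % inhibition of Ub-AMC cleavage fluorescence; Benchmarks: no-proteasome and no-compound wells.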
# ALR inh: human ALR oxidase inhibition via reduced H2O2; P55789; purified ALR, DTT oxidation, H2O2 HRP-luminol luminescence; inhibition, % (no concentration beside the values); actives 3.8% (n = 290,000);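 active = mean and each replicate at 75% or more; inconclusive = only one of the two met; inactive = neither met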;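 note: stock transfer was 7.5 nL into about 7.5 µL; 0% = neutral wells and 100% = wells with inactivated enzyme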
# HNF4A DNA FP: change in binding of human HNF4 alpha to DNA | HNF4a-FITC DNA binding, fluorescence polarization, 1 h | activity change, % at 10 µM | actives 0.3% (n = 360,000) | AID 1224865; in the data active = activity change above about 30%, passing the limit was not always enough;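 note: controls were the assay level and a saturating level of protein; the project sought stronger binding though the title names inhibitors; some compounds called inactive have numbers as strong as hits; positive values seem to mean higher polarization but the record does not say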
# Active calls of the source: *; i = inactive; ? = inconclusive; / = not tested or not shown. These rows are one share of the data (hit frequency here may not be typical).
SMILES,Beta2AR agonist,FGF22 binding,E coli growth,LANA-H2B inh,UCH37 inh,ALR inh,HNF4A DNA FP
Cc1cc(Oc2ccc(-c3nnc(-c4ccccc4)o3)cc2[N+](=O)[O-])ccc1Cl,-2.0,/,0.66,-1.4,0.4,-8.3,4.7
CCc1c(C(=O)N/N=C/c2ccc(C)o2)csc1C,-5.1,/,/,0.8,/,66.0,1.7
O=C(NNC(=O)C12CC3CC(CC(C3)C1)C2)c1ccccc1[N+](=O)[O-],2.2,i,0.623,-0.6,-2.5,-1.5,-1.6
COC(=O)C(C)Nc1cccc(Br)c1 (stereo unspecified),0.0,i,0.646,1.0,0.6,-2.4,6.4
N#CCCCc1cc2ccccc2cn1,-3.8,i,0.681,-4.7,0.7,/,-2.4
CCCCn1c(N)c(N(C)C(=O)c2ccc(Br)o2)c(=O)[nH]c1=O,-3.9,i,0.631,2.5,0.6,/,1.3
CCc1cccc(NC(=O)c2cc(OC)c(OC)c(OC)c2)c1,0.7,i,0.69,-1.2,4.0,-5.3,-2.6
CN(c1ccccc1)S(=O)(=O)c1ccc(Cl)c(C(=O)NCc2ccco2)c1,0.7,i,0.674,2.4,3.5,-3.3,0.2
CNC(=O)c1c(NC(=O)C(C)C)sc2c1CCC2,-11.3,i,0.679,-6.4,1.0,3.2,-0.4
CN=c1scc(C)n1/N=C/c1ccc(O)cc1O,-5.4,/,/,1.2,/,98.6*,1.2
Cc1cc(C)c(NC(=O)COC(=O)c2ccc([N+](=O)[O-])s2)c(C)c1,-1.4,/,0.684,7.4,4.0,-15.4,-0.1
S=c1nc(-c2sccc2OCc2ccc(Cl)cc2Cl)[nH][nH]1,0.1,i,0.629,2.3,-35.1,96.5*,5.5
CNC(=O)CSc1nnc(-c2cccc(S(=O)(=O)N3CCOCC3)c2)n1-c1ccc(F)cc1,-9.2,/,0.662,11.5,-3.2,-5.4,2.1
O=C(Nc1cccc(C(=O)N2CCOCC2)c1)c1ccc([N+](=O)[O-])cc1,-10.0,i,0.702,-22.3,2.3,-18.2,-1.0
C#CCN1Cc2ccccc2Oc2cc(Br)ccc2S1(=O)=O,6.0,i,0.693,/,1.2,/,1.4
CSc1ncccc1C(=O)N1CCN(S(=O)(=O)c2ccc3ccccc3c2)CC1,1.4,i,0.677,-2.4,3.0,-1.5,-0.6
O=c1ccn(Cc2ccccc2Cl)cc1,4.8,/,0.687,1.8,1.3,-3.9,1.9
CCCc1cc(=O)[nH]c(SCC(=O)N2CCCCCC2)n1,-9.6,i,0.678,1.1,6.7,/,-1.2
O=c1[nH]c(NCCO)nc2c1C1(CCCC1)Cc1ccccc1-2,-11.6,/,0.67,-0.6,i,-4.2,0.8
Cc1ccc(-n2c(=O)c3sccc3n(Cc3cc(=O)n4cc(Cl)ccc4n3)c2=O)cc1F,-19.2,/,0.652,3.4,-26.7,-0.7,1.6
S=c1[nH]nc(-c2ccc(Cl)cc2)n1-c1cccnc1,1.5,i,0.655,-3.1,2.0,/,1.3
COc1ccc(C2CC(c3ccccc3)=NN2C(=O)COC(=O)c2cccnc2)cc1 (stereo unspecified),-0.3,i,0.67,-1.3,1.5,-5.2,4.4
CCOc1ncccc1C(=O)OCC(=O)NCc1cccs1,3.6,i,0.686,-1.3,0.5,/,-1.4
COc1cc(NC(=O)COC(=O)CNC(=O)C2CCCCC2)cc(OC)c1,8.3,i,0.689,0.5,2.8,-39.3,-0.5
COc1ccccc1-c1cc(-c2ccccc2)nc(=O)[nH]1,-5.7,i,0.703,-2.4,-116.5,-4.1,-1.1
COc1ccc(-c2csc(N(CC3CCCO3)C(=O)c3cccs3)n2)cc1 (stereo unspecified),2.1,/,0.738,6.7,-2.4,-1.8,2.2
O=C(CN1CCC(n2nnc3cc(C(F)(F)F)ccc32)CC1)NCc1cccs1,-9.5,/,/,-0.8,/,-5.2,-0.9
CCc1ccc(CNCc2ccc(OCC(O)CN(C)Cc3ccccc3)cc2)nc1 (stereo unspecified),4.1,i,0.648,-2.8,1.1,-3.3,3.4
COc1ccc(NC(=O)c2cc(C)on2)cc1,-2.3,i,0.682,-2.5,3.5,-4.9,2.1
C/C(=N\NS(=O)(=O)c1ccccc1)c1ccccc1,-0.6,i,/,3.2,/,7.4,-1.0
Cn1c(SCC(=O)NCc2cccs2)nnc1-c1cccs1,-21.7,/,0.686,-0.5,-1.1,-11.0,-1.3
Cc1ccc(NC(=O)c2ccc3nsnc3c2)c(C)c1,6.2,i,0.696,-3.9,-3.7,3.7,-3.3
O=C(Nc1ccccc1OC(F)(F)F)c1ccc([N+](=O)[O-])cc1,2.4,/,0.713,2.6,2.1,-8.7,0.6
O=C(CNC(=O)c1ccccc1F)N/N=C/c1ccc2c(c1)OCO2,-3.8,i,/,-5.1,/,-3.5,1.0
CNC(=S)NN(C)c1nc(C)cc(C)n1,7.0,/,0.68,2.0,1.6,0.6,-4.5
C/C=C/C=C/C(=O)N1CC2(CC(c3cccc(NC(=O)/C=C/C)c3)=NO2)C[C@@H]1C(N)=O (stereo partly specified),1.9,i,/,-4.5,0.7,-5.5,-13.6
Cc1cc(C)c(C)c(C(=O)COC(=O)CNC(=O)CNC(=O)c2ccco2)c1C,-1.4,i,0.684,-0.8,6.1,/,-1.0
O=C(/C=C/Nc1ccccc1Oc1ccccc1)c1ccco1,-13.0,/,0.636,-2.7,-3.2,2.4,2.3
O=C1c2cccnc2Nc2ccccc2N1CCCF,-7.4,/,0.681,-3.1,4.5,11.5,4.8
COc1cccc(OC)c1C1=CC(=O)C[C@H](c2ccc3c(c2)OCO3)C1,-3.6,i,/,-1.8,-0.6,0.3,2.6
CN(C(=O)c1cccc(C#N)c1)c1nnc(-c2cnccn2)s1,-13.5,/,0.709,5.8,0.7,0.3,2.6
COC(=O)[C@@]1(Cc2ccc(OC)cc2)[C@H]2c3cc(C(=O)N(C)C)n(CCSCCO)c3C[C@H]2CN1C(=O)c1ccccc1,-7.2,/,/,-0.9,0.1,-3.6,-0.4
CCN(CC)C(=O)CN1C(=O)C2(NC(=O)c3ccccc3N2)c2ccccc21 (stereo unspecified),8.8,/,0.754,-3.3,-84.6,/,2.0
Brc1ccc(CSc2ccc3nnc(-c4ccccn4)n3n2)cc1,-13.4,i,0.715,0.5,2.9,-22.4,-0.8
Cc1ccc(C(=O)N/N=C\c2ccc([N+](=O)[O-])o2)cn1,6.4,i,/,-0.4,/,-48.6,-5.7
O=[N+]([O-])c1ccccc1N/N=C1\CCc2ccccc21,-5.7,i,/,1.3,/,/,1.5
O=C(NCC1CCCN1S(=O)(=O)c1cccs1)c1ccccc1F (stereo unspecified),-12.1,i,0.644,4.3,1.2,-2.1,-2.1
O=C(COC(=O)c1ccc[nH]c1=O)NC1CCCc2ccccc21 (stereo unspecified),-4.1,i,0.685,1.2,0.9,-1.1,0.8
COc1ccc(NC(=O)c2ccc(OC)cc2)cc1,2.9,/,0.669,3.8,1.7,/,1.8
Cc1noc(/C=C/N(C)C)c1S(=O)(=O)N1CCCC(C(=O)N2CCCCC2)C1 (stereo unspecified),-2.4,i,0.756,9.2,16.2,/,-3.3
# Carrying on.
SMILES,Beta2AR agonist,FGF22 binding,E coli growth,LANA-H2B inh,UCH37 inh,ALR inh,HNF4A DNA FP
COc1cc(/C=C2\C(=N)N3N=C(S(C)(=O)=O)SC3=NC2=O)ccc1OCCOc1ccc(C)cc1,10.0,i,0.657,-4.7,5.0,?,4.0
COc1ccc(NC(=O)COC(=O)[C@@H](NC(=O)c2c(F)cccc2F)C(C)C)cc1,0.1,i,0.718,4.4,2.6,-2.2,1.9
Cc1ccc2c(c1)NC(=O)C(CC(=O)NCCCN1CCCC1)O2 (stereo unspecified),4.5,i,0.761,-0.7,2.4,/,0.4
O=C(CN1C(=O)c2ccccc2C1=O)N1CCOCC1,-5.9,/,0.769,-0.5,4.4,/,-1.5
O=C(O)c1ccc(N/N=C/c2cn(-c3ccccc3)nc2-c2cccs2)cc1,11.6,/,/,-6.5,/,98.9*,-1.8
CC(C)(O)C#Cc1ccc(CN2CCN(Cc3ccccc3)C(CCO)C2)s1 (stereo unspecified),-0.1,i,0.671,-9.4,3.9,41.2,1.6
Cc1csc(SCC(=O)Nc2cccc(C)c2C)n1,1.4,i,0.679,0.6,0.8,1.9,-2.0
NC(=O)c1ccc(NC(=O)COC(=O)/C=C/c2ccc(Br)o2)cc1,4.3,i,0.696,-0.8,5.0,-5.0,-22.1
O=C(COc1ccccc1)NCC(=O)N/N=C/c1cc(Br)ccc1OCc1ccccc1,8.3,i,/,2.7,/,0.2,4.8
COc1ccc(S(=O)(=O)Nc2ccc3c(c2)C(=O)N([C@H](C)CO)C[C@H](C)[C@@H](CN(C)S(=O)(=O)c2ccccc2)O3)cc1,-2.4,i,/,-3.9,5.6,-3.0,-3.6
Cc1ccnc(NS(=O)(=O)c2ccc(NC(=O)c3ccc(S(=O)(=O)N4CCCC4)cc3)cc2)n1,1.2,i,0.678,-0.1,4.3,-1.7,-1.1
O=C(Cc1ccc(S(=O)(=O)N2CCOCC2)s1)Nc1ccccc1N1CCOCC1,-4.6,i,0.709,-0.6,-0.4,-10.4,3.3
COC(C(=O)Nc1ccnn1C1CCN(Cc2ccc(Cl)s2)CC1)c1ccccc1 (stereo unspecified),-2.9,i,0.674,2.1,0.8,1.7,1.6
CCOc1ccc2[nH]c3c(NCCc4ccc(OC)c(OC)c4)ncnc3c2c1,28.8,i,0.681,3.6,-44.0,4.4,-2.5
COc1ccc(-c2nnc(SCC(=O)NC(=O)NCc3ccccc3)o2)cc1,-2.9,/,0.686,-1.5,-0.9,-14.8,0.1
CCOC(=O)c1[nH]c2ccc(OC)cc2c1NC(=O)CCN1CCSCC1,1.2,i,0.689,-4.5,-160.8,-9.1,0.7
N#Cc1cc2c(nc1SCC1COc3ccccc3O1)CCC2 (stereo unspecified),-14.8,/,0.717,1.9,-7.6,-0.2,2.0
O=C(CCN1C(=O)CSC1=O)Nc1ccccc1,-3.7,/,0.702,-1.0,4.6,-0.1,0.6
O=C(c1ccco1)N1CCC(c2nc(-c3ccccc3Cl)no2)CC1,-11.0,/,0.68,2.6,-0.3,-8.9,-1.2
c1ccc2c(C[C@@H]3CNCCN3CCC34CC5CC(CC(C5)C3)C4)cccc2c1,11.9,i,/,0.8,0.4,-19.0,2.8
O=C1[C@H]2CC3C=CC2(O3)[C@@H]2OCCCN12 (stereo partly specified),-12.6,i,/,0.1,1.4,-3.7,2.2
COc1ccc(Cl)cc1NC(=O)CCN1C(=O)C2C3CCC(C3)C2C1=O (stereo unspecified),-3.2,i,0.656,0.2,2.3,-14.2,6.1
COc1ccc(C(C(=O)NC2CCCC2)N(C(=O)CNC(=O)c2ccco2)c2cccnc2)cc1 (stereo unspecified),-7.2,i,0.673,1.0,3.3,/,2.8
Cc1cccc(N2CC(C(=O)Nc3nnc(SCC(=O)Nc4cc(C)on4)s3)CC2=O)c1 (stereo unspecified),0.0,i,0.714,/,5.6,/,7.8
CCOc1ccc(C(=O)NCc2ccncc2)cc1OCC,-1.9,/,0.715,-2.8,3.8,-10.6,-0.3
CCCn1c(SCC(=O)Nc2cccnc2Cl)n[nH]c1=O,1.4,i,0.71,2.3,2.9,4.5,1.3
CCOP(=O)(OCC)c1ccc2ccc3ccccc3c(=O)c2c1,-5.7,i,0.649,0.8,-0.3,1.9,-0.9
CCC(C(=O)NCc1ccco1)N(C(=O)CNS(=O)(=O)c1ccccc1)c1ccccc1C (stereo unspecified),8.6,i,0.674,-1.6,1.9,-3.4,-1.5
Cc1cc(NC(=O)/C(C#N)=C\c2ccc(-c3ccc(SC(F)F)cc3)o2)n(-c2ccccc2)n1,11.0,i,0.71,/,-8.2,/,162.8
